# From PubChem BioAssay
# MgrA DNA FP = S. aureus MgrA activity modulators, primary screen, biochemical, S. aureus Newman, fluorescence polarization. MgrA-DNA binding. AID 602314, 2012. 84,000 tested, 0.13% active. inhibition, %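 (about 10 µg/mL by stock and volumes)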;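 active means above 50% in either of two replicates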;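 further: 0% = protein plus DNA without compound and 100% = DNA alone without protein; higher means less MgrA bound to DNA so lower polarization; one replicate is shown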
# Sa helicase inh = inhibitors of S. aureus replicative helicase, primary screen, biochemical, fluorescence unwinding readout; 120,000 tested, 0.05% active; replicative DNA helicase (DnaC/DnaB), Staphylococcus aureus; purified S. aureus helicase, fluorescence unwinding assay; about half of the hits fall short of the stated cut; inhibition, %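 (tested at about 80 µM)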;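 active means both duplicates at 50% or more, or one of them with a favoured structure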;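 further: 0% = mean of negative control wells and 100% = mean of positive control wells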
# Numbers without * were called inactive; . = not tested or not shown; & = joins results of further samples. An excerpt (hit frequency here may not be typical).
SMILES,MgrA DNA FP,Sa helicase inh
Cc1csc(NC(=O)c2cccnc2)n1,0.3,0
N#Cc1ccc(CON2C(=O)CCC2=O)cc1,.,-4
O=C(Cc1c[nH]c2ccccc12)N1CCN(S(=O)(=O)c2ccc(F)cc2)CC1,.,-1
CCCCc1cc(=O)oc2cc(OCC(=O)c3ccc(F)cc3)ccc12,0.9,7
O=c1cc(C(F)(F)F)nc(C2CC2)[nH]1,0.0,.
CN1C(=O)c2ccccc2Sc2ccc(NC(=O)NCCCN3CCOCC3)cc21,.,14
c1ccc(-c2cn3c4ccccc4n(CCN4CCCCC4)c3n2)cc1,-0.6,23
O=C(Nc1cccn(Cc2ccccc2)c1=O)NC1CCCCC1,-1.6,-1
O=C1NCCN1CCNS(=O)(=O)c1ccc(F)c(Cl)c1,.,-7
Cc1nnc(SC(C)C(=O)Nc2ccccc2)[nH]c1=O (stereo not drawn),-2.2,4
COc1ccc(N2CCN(c3ccc(S(=O)(=O)N(C(C)C)C(C)C)cn3)CC2)cc1,.,8
CC(=O)Nc1ccccc1-c1nc2ccc(C(=O)NC3CCCC3)cc2[nH]c1=O,.,14
CCOC(=O)c1c(N2C(=O)CSCC2=O)sc2c1CCCC2,-0.7,.
C=C(C)CNC(=S)N1CCSC1=Nc1ccccc1OC,.,0
Cc1c(C(=O)NCCN2CCOCC2)oc2c1-c1nn(Cc3ccccc3Cl)cc1CC2,.,16
CCOC(=O)c1cc(-c2cccs2)nn1C(=O)c1ccccc1,0.6,.
CC(C)(CO)NC(=O)c1cccc(C(=O)NC(C)(C)CO)c1F,0.1,.
CCN(CC)c1ccc(C=Nc2cc(C)cc(C)c2)cc1,-2.5,6
CC1(c2ccc(Cl)cc2)NC(=O)N(CN2CCCC(C(F)(F)F)C2)C1=O (stereo not drawn),.,-6
O=C(O)c1ccc(-c2ccsc2)cc1,0.3,.
O=C1NC(Cc2ccccc2)(Cc2ccccc2)C(=O)N1Cc1nnc(-c2cccs2)o1,.,7
CCc1ccc2nc(N3CCCC3)c(C#N)cc2c1,0.1,10
Cc1ccc(S(=O)(=O)NC(=O)O/N=C(\N)c2ccc(C(C)(C)C)cc2)cc1,-2.3,.
CC(OC(=O)c1ccc(Cl)c(S(N)(=O)=O)c1)c1nnc(-c2cccs2)o1 (stereo not drawn),.,4
CC1CC(C)CN(C(=O)COc2ncnc3ccccc23)C1 (stereo not drawn),-1.9,10
# New compounds follow.
SMILES,MgrA DNA FP,Sa helicase inh
C=CCn1cnc2c1c(=O)n(C)c(=O)n2C,.,9
COc1ccc(N(C(C)=O)C2SC(=O)N(c3ccccc3)C2=O)cc1 (stereo not drawn),-0.1,2
Oc1ccc(Br)cc1C=Nc1nonc1-c1ccccc1,5.0,1
COc1ccc(C(=O)c2oc3ccc4ccccc4c3c2C)cc1,-2.6,.
CCN(C(=O)COc1ccc(C#N)cc1OC)C1CCCCC1,.,-4
Cc1onc(-c2c(Cl)cccc2Cl)c1NC(=O)SCc1c(Cl)cccc1Cl,-2.9,.
O=C(Cn1nnc(-c2cccs2)n1)NC1CC1,0.7,-2
NS(=O)(=O)c1ccc(NC(=O)Cc2cccs2)cc1,1.4,15
CCC(=O)Nc1nn(CC)c2nc3ccccc3cc12,3.0,-12
FC(F)(F)c1cccc(-n2c(-c3ccncc3)n[nH]c2=S)c1,-1.2,.
O=C(N(c1ccccn1)C1CCCCC1)C12CC3CC(CC(C3)C1)C2,3.6,-1
O=C(NCCc1ccccc1)c1cccc(N2CCCC2=O)c1,-0.1,8
NC1=NC(=O)C(c2ccccc2Cl)S1 (stereo not drawn),3.8,-5
CCC(=O)c1ccc2c(c1)OCCO2,.,-12
O=c1[nH]ccc2nc(NCc3ccccc3)ncc12,.,10
CCc1nn2c(=O)cc(COc3ccc(C=C(C#N)C#N)cc3OC)nc2s1,.,-1
CCOC(=O)c1ccc(NC(=S)N2CCC(N(C)C(C)CC)CC2)cc1 (stereo not drawn),.,-10
CC(CCc1ccccc1)N1C(=O)c2ccccc2C1C(=O)NCCc1ccccc1 (stereo not drawn),0.2,10
Cc1ccc(S(=O)(=O)N/N=C/c2ccc3c(c2)n(C)c(=O)n3C)cc1,.,1
CCc1nn2cc(C(C)(C)C)nc2s1,-2.7,.
CCCNC(=O)C1CCCN(c2nn3cc(-c4ccc(C)cc4)nc3s2)C1 (stereo not drawn),0.9,-3
Cc1ccc(-c2nc3sc4c(n3n2)CC(C)(C)CC4=O)cc1,1.9,-3
Cc1ncc(CO)c(CO)c1O,-1.2&-5.8,12
CCN(CC(=O)Nc1cccc(OC)c1)C(=O)Cn1nnc2ccccc21,.,-9
Nc1ccccc1N1CCCC1,3.9,11

# Ordered by the number under MgrA DNA FP (low to high): 5 from the list above.
SMILES,MgrA DNA FP,Sa helicase inh
COc1ccc(C(=O)c2oc3ccc4ccccc4c3c2C)cc1,-2.6,.
FC(F)(F)c1cccc(-n2c(-c3ccncc3)n[nH]c2=S)c1,-1.2,.
O=c1cc(C(F)(F)F)nc(C2CC2)[nH]1,0.0,.
O=C(O)c1ccc(-c2ccsc2)cc1,0.3,.
CCC(=O)Nc1nn(CC)c2nc3ccccc3cc12,3.0,-12

# No new results follow: 3 of the compounds above.
SMILES,MgrA DNA FP,Sa helicase inh
Cc1ncc(CO)c(CO)c1O,-1.2&-5.8,12
CCN(CC(=O)Nc1cccc(OC)c1)C(=O)Cn1nnc2ccccc21,.,-9
Nc1ccccc1N1CCCC1,3.9,11

# (continued)
SMILES,MgrA DNA FP,Sa helicase inh
Cn1cnc(S(=O)(=O)NCc2ccccc2)c1,-1.5,4
COC(=O)c1cccc(Cl)n1,-2.4,0
O=C(CSCC(=O)Nc1cccc2ccccc12)Nc1ccc(Br)cc1,0.3,6
Cn1nc(-c2nc3c4c5c(sc4[nH]c(=O)n3n2)CCC5)c2ccccc2c1=O,.,2
CC(=O)N1c2ccccc2C(C)(C)C2CCC(C)CC21 (stereo not drawn),-0.9,-10
CCOC(=O)N1CCC(NC(=O)C2CCCN(Cc3nc(-c4ccc(CC)cc4)oc3C)C2)CC1 (stereo not drawn),.,13
Cc1ccc2c(c1)N(CC(=O)NCc1ccccc1Cl)C=NS2(=O)=O,.,-5
Cc1cc(C)cc(N(CC(=O)NCc2ccco2)S(C)(=O)=O)c1,-0.2,0
CN(C)c1ccc(NC(=O)/C=C/C(=O)O)cc1,.,7
CC1CN(Cc2ccccc2)CCN1C(=O)c1csc(-c2cccs2)n1 (stereo not drawn),-1.8,.
O=c1[nH]c2sc3c(c2c(=O)n1Cc1ccco1)CCCC3,1.6,7
COc1cccc(C2N(c3ccccc3)CCN2c2ccccc2)c1OC,1.9,4
O=C(CSc1nnc(NC(=O)c2ccccc2)s1)Nc1ccccc1,.,-18
COc1cc(N=Cc2c(O)[nH]c(=O)[nH]c2=O)cc(OC)c1OC,-0.8,-6
COC(=O)c1cc2c(cc1NC(=O)c1c(C)nn(-c3ccccc3)c1-n1cccc1)OCO2,.,-12
O=C(Nc1ccc(Cl)c(Cl)c1)Nc1ncc2c(n1)CC(c1ccco1)CC2=O (stereo not drawn),1.9,7
Cn1c(Cc2cccs2)nnc1SCC(=O)N1CCCc2ccccc21,2.5,0
COc1cccc(C(=O)NCC(C)C)c1,-0.5,10
Cc1cccc(OCC(=O)Nc2ccc(CC(=O)O)cc2)c1C,1.6,6
Cn1cnc2c(=O)oc3ccccc3c21,.,-5
O=C(CCn1nc(-c2ccc(Cl)cc2)c2ccccc2c1=O)N1CCN(Cc2ccccc2)CC1,0.8,5
Cc1sc(NC(=O)C(C)C)c(C(=O)O)c1C,-6.4,-1
O=C(Nc1ccccc1)C1=NN(c2ccccc2)C(=O)CC1,.,3
COC(=O)c1scc(S(C)(=O)=O)c1Cl,0.6,.
COc1ccc(C(=O)NCc2nnc(SCC(=O)NO)n2-c2cccc(F)c2)cc1,.,12
# Next section:
SMILES,MgrA DNA FP,Sa helicase inh
COc1ccc(NC2CS(=O)(=O)CC2NCc2ccccc2)cc1 (stereo not drawn),.,15
N#C/C(=C\c1ccc(OC(=O)c2ccco2)cc1)S(=O)(=O)c1ccccc1,3.5,17
CC(OS(=O)(=O)c1ccc(Cl)cc1)c1nc2ccccc2[nH]1 (stereo not drawn),-2.8,.
Nc1ccc(Sc2ccc(Cl)cc2)nc1,.,9
Cc1cn(S(=O)(=O)c2cn(C)nc2C(F)(F)F)nc1C(F)(F)F,.,-13
CCCSC(=S)c1c(C)[nH]n(-c2ccccc2)c1=O,.,-7
CCCCc1ccc(N=CNO)c(C)c1,-2.7,.
N/C(=N\OC(=O)Cc1ccccc1)c1ccncc1,-5.8,5
O=C(CN1CCCC1)N1CCc2ccccc21,2.0,.
COc1ccc2c(c1)-c1nc(/N=C/c3ccc(C)o3)sc1CC2,4.9,9
COc1ccc(NCc2cn3ccccc3n2)cc1,4.5,12
COc1ccc(-n2c3c(cc(C#N)c2=O)C(=O)CCC3)cc1,0.7,0
Cc1cccc(Cn2c(N(C)Cc3ccccc3)nc3c2c(=O)[nH]c(=O)n3C)c1,.,5
CCC(C)NC(=O)CSc1cc(=O)n(C)c2ccc(Cl)cc12 (stereo not drawn),-0.9,8
CCC(=O)c1cc2c(C)cc(=O)oc2c(C)c1C(=O)c1ccccc1,-0.7,11
N#CC1(NC(=O)c2cc3ccccc3oc2=O)CCCCC1,0.9,5
CCOc1ccc(-n2c(SC)nnc2-c2c[nH]c3ccccc23)cc1,.,18
COc1ccc(CCN(C)C(=O)Cn2c(=O)oc3ccccc32)cc1OC,.,12
CC1(C)C2CCC1(C)C(OCC[N+]1(C)CCCC1)C2 (stereo not drawn),-0.1,-19
CCOC(=O)/C(C#N)=C\c1cn(C)c2ccccc12,1.6,12
CC1(C)CC2CC(C)(CN2CC(O)COCc2ccc(Cl)cc2)C1 (stereo not drawn),.,13
Cn1cnnc1SCc1cccc(CSc2nncn2C)n1,-0.3,3
Cc1cc(SCc2ccccc2)nc(=O)[nH]1,.,0
CN(C)CCCN1C(=O)C(=O)/C(=C(/O)c2ccc3c(c2)OCO3)C1c1cccnc1 (stereo not drawn),0.2,10
O=c1sc(N2CCN(C3CCCCC3)CC2)nc2ccsc12,0.4,8
# Next entries follow.
SMILES,MgrA DNA FP,Sa helicase inh
COc1ccc(CN2C(=O)N(CC(=O)NC(C)C)c3ccccc3S2(=O)=O)cc1,.,5
CCc1ccc(NC(=O)CSC2=C(C#N)C(c3ccco3)C3=C(CCCC3=O)N2)cc1 (stereo not drawn),.,-20
Cc1ccc(-n2c(C)cc(C=Nc3ccc4[nH]c(=O)[nH]c4c3)c2C)cc1,.,-11
O=C(O)COc1ccc2ccccc2c1Br,1.0,-12
CC(C)(C)NC(=O)C1CCN(S(=O)(=O)c2ccccc2)CC1,2.0,7
N#C/C(N)=C(/C#N)N=Cc1ccccc1,-0.8,.
N#C/C(=C\Nc1cc(C(F)(F)F)cc(C(F)(F)F)c1)S(=O)(=O)c1ccccn1,0.0,.
Cc1cccc(C)c1NC(=O)CSC(=O)c1cccs1,-0.8,.
CC1(C)CC(=NOC(=O)c2ccccc2)CC(C)(C)N1[O],3.5,30
CCCN(CCC)C(=O)CSc1nc2ncccc2[nH]1,-0.1,-11
CCCN(CCC)c1cc(Cl)nc(N)n1,-0.9,.
CC(=O)Nc1cccc(/C(C)=N/NS(=O)(=O)c2ccc(C)cc2)c1,1.3,6
CCOC(=O)c1nc(NCCCN2CCc3ccccc3C2)c2ccccc2n1,.,10
Cc1cc(C)nc(SCC(=O)NN=C2CCCC2)n1,5.3,18
Cc1ccccc1Nc1nc(N)nc(CSc2ncn[nH]2)n1,.,-8
Clc1cccc(-c2nn[nH]n2)c1Cl,-1.7,.
Cc1ccc2nc(Cn3nnc(-c4ccccc4)n3)cn2c1,.,-9
CC(C)n1c(C(F)(F)F)nc2cc(C(=O)N3CCCCC3)ccc21,-1.2,.
O=C(OCCc1csc2ccccc12)c1ccc(Cl)cc1,-1.6,.
CC(C)C1Oc2cc3oc(=O)ccc3cc2C1=O (stereo not drawn),.,-26
CSc1ncccc1C(=O)NCc1nnc2ccccn12,.,-5
O=C(Cc1cccs1)N1CCOCC1,-2.6,25
Cn1nc(C(=O)NCC2CCCO2)c2c1-c1ccccc1SC2 (stereo not drawn),.,-11
Cc1ncc(CSCC(=O)Nc2ccccc2F)c(CO)c1O,0.2,.
Cc1nc(C23CC4CC(CC(C4)C2)C3)co1,.,-16
# (list continues)
SMILES,MgrA DNA FP,Sa helicase inh
Cc1ccc(CNC(=O)C2(S(=O)(=O)c3ccc(C)cc3)CC2)cc1,0.2,3
CCOC(=O)c1c(CN2CCN(CC#N)CC2)oc2cc(Br)c(OC(C)=O)cc12,.,7
O=C(CN(C(=O)Cn1nnc(-c2cccs2)n1)C1CCCC1)NCc1ccccc1,0.3,-3
CC(N=Cc1c(O)c2ccccc2oc1=O)C(=O)O (stereo not drawn),-0.7,5
Cc1ccc(S(=O)(=O)NC(C)C(=O)OCc2cc(=O)n3ccsc3n2)cc1 (stereo not drawn),.,12
O=c1ccc(-c2ccc(S(=O)(=O)NC3CC3)o2)n[nH]1,.,21
Cc1cc(C(=O)CN2C(=O)c3cccc(N)c3C2=O)c(C)n1-c1cccc(S(=O)(=O)N2CCOCC2)c1,.,6
COC(=O)N/N=C/c1ccc(OC)c(OC)c1,.,-7
O=C(Cc1cn2ccsc2n1)Nc1ccccc1Oc1ccccc1,.,1
Cc1cc(=O)n(C)c(=O)n1CCCCN1CCOCC1,.,13
O=C(Nc1ccccc1-c1nc2ccccc2[nH]1)C1=COCCO1,.,2
COC(=O)CSc1nnc(SCC(=O)OC)s1,1.3,8

# Quoted at random: 3 records from the list
SMILES,MgrA DNA FP,Sa helicase inh
O=C(Nc1ccccc1-c1nc2ccccc2[nH]1)C1=COCCO1,.,2
COC(=O)CSc1nnc(SCC(=O)OC)s1,1.3,8
COC(=O)N/N=C/c1ccc(OC)c(OC)c1,.,-7
